Compound activity as filed in PubChem.
ugtP null kill = kills S. aureus RN4220 lacking UgtP; S. aureus RN4220 ugtP deletion, OD600 growth, 16 h; some inactives read as strong as hits; growth inhibition, % (test concentration not listed); actives 0.54% (n = 330,000); AID 1259309;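 active means z-score under -3 and OD600 up to 0.15 on both plates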;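 further: plate controls were untreated wells for no effect and antibiotic for full effect; wells of about 80 µL received 100 nL stock; the first replicate is given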
PrP 5UTR inh = suppresses PrP 5' UTR mRNA reporter expression; cell-based PrP 5' UTR mRNA reporter, plate reader; inhibition, % (test concentration not listed); actives 0.35% (n = 340,000);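 active means every replicate at 50% or more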;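 further: 0 = median of the neutral control wells; tested in H4 reporter cells; numbers are from one replicate; inactives centre near -14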
BJeLR lethal = kills HRASV12-expressing BJeLR cells. inhibition, % (test concentration not listed). BJeLR (HRASV12) viability, CellTiter-Glo ATP luminescence, 48 h; reference of the scale not given here. actives 0.17% (n = 300,000). AID 1554;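 active means replicate mean above 50%; inconclusive means above 50% but judged a plate artefact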;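 further: 50 nL library stock added to about 25 µL; numbers are from one replicate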
Bead autofluor = counter-screen for toxin protease inhibitors: compound fluorescence; compound autofluorescence counterscreen, microsphere flow cytometry; stronger effect = higher value; fluorescence intensity (concentration not given with the values); actives 3.1% (n = 360,000); AID 624483;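 active means at least 3 SD above the mean of all compounds, about 16000 in these data; inconclusive means too few beads counted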;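 further: 100 nL of 1 mM stock went into each well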
Sa RN4220 lethal = kills Staphylococcus aureus RN4220; actives 0.33% (n = 330,000); AID 1259311; inhibition, % (test concentration not listed); S. aureus RN4220 growth, OD600, 16 h;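 active means z-score of -3 or lower and OD600 up to 0.18 on both plates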;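 further: plate controls were untreated cells for no effect and reference antibiotic for full effect; stock transfer was 100 nL into about 80 µL; one replicate is shown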
Mtb hypoxia inh = reduces hypoxia-regulated biosensor signal in M. tuberculosis; actives 0.1% (n = 300,000); fluorescence inhibition, % (no concentration beside the values); M. tuberculosis hypoxia-regulated fluorescent reporter, fluorescence;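 active means 35 to 45% if threefold the growth effect, above 45% if 1.5-fold the growth effect; inactive means the rest, general growth blockers included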;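 further: wells of about 50 µL received 100 nL stock; 0% = vehicle wells and 100% = reference inhibitor wells; whole bacteria with a GFP reporter of the hypoxia response; strong numbers were not always called active; many hits fall short of the cut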
Mtb hypoxia inh growth = also measured in Mtb hypoxia inh; calls as there; growth inhibition, %; measured here: M. tuberculosis growth (absorbance);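 0% = vehicle and 100% = reference antibiotic; read after six days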
Starred values were filed as active, the others as inactive; u = inconclusive; x = no result given. The order is random. Share with any hit: about 4%.

Value order – ugtP null kill, PrP 5UTR inh, BJeLR lethal, Bead autofluor, Sa RN4220 lethal, Mtb hypoxia inh, Mtb hypoxia inh growth
#1 O=C(c1cn(-c2ccccc2)nc1-c1cccnc1)N1CCN(S(=O)(=O)c2ccc(Cl)cc2)CC1
  1, -2, x, 3591, 0.0, 1, 2
#2 CCC(C)c1ccc(NC(=O)C2CC2)cc1 (centres undefined)
  0, -50, -5, 3728, 1.7, 21, 14
#3 COC(=O)C1CCCCN1C(=O)c1ccc2oc(Cc3ccccc3)nc2c1 (centres undefined)
  8, -42, -3, 4667, 0.6, 7, -4
#4 N#Cc1ccc(Cn2c(=O)c(C#N)c3n(c2=O)CCC3)cc1
  -4, -23, 4, 10114, 4.6, -3, 9
#5 COc1ccc(OCC(=O)N2CCN(C(=O)c3cccs3)CC2)cc1
  18, -6, 2, 3374, 0.8, x, x
#6 COc1cccc(OC)c1NC(=O)c1nc2c(nnn2Cc2ccccc2Cl)c(=O)[nH]1
  13, -23, -6, 4473, 15, -7, 0
#7 COC(=O)c1ccc(Cn2cnc3c(cnn3-c3ccc(F)cc3)c2=O)o1
  -5, -6, 2, u, 2.5, 1, 3
#8 CCC(C)c1ccc(OCCn2ccnc2)cc1 (centres undefined)
  12, -27, -4, 2542, 8.8, 25, 16
#9 Cc1c(Cl)cccc1NC(=O)CSC(C)c1nc2ccccc2c(=O)[nH]1 (centres undefined)
  -2, 0, 4, 6424, 2.0, -2, 1
#10 CCOC(=O)N1CCN(c2nc(SC)nc3sc4c(c23)CC(C)(C)OC4)CC1
  -3, -10, 0, 2413, 4.6, -2, 0
#11 Nc1ccc2ncccc2c1
  12, -1, -2, 17386*, 5.4, 1, 5
#12 O=C(O)CCC(=O)N1CCc2cc(S(=O)(=O)N3CCCCC3)ccc21
  8, -12, -17, 10902, 6.0, 9, 11
#13 COc1ccc(OC)c(NC(=O)CCc2nnc3ccc(NCc4ccco4)nn23)c1
  0, -13, -10, 5602, -4.4, 3, 1
#14 O=C(OCC(=O)N1CCCCCC1)c1cccnc1Cl
  6, -28, x, 3801, 4.3, 3, -5
#15 CCOc1cc(C(C#N)N2CCCCC2)ccc1OC (centres undefined)
  4, -15, -4, 2783, 6.6, -1, 0
#16 CCN(CC)S(=O)(=O)c1ccc(NC(=O)CCNC(=O)c2ccccc2)cc1
  0, -26, -4, 3186, -0.9, -5, -1
#17 Cn1c(=O)c2c(nc(CN3CCN(C(=O)c4ccco4)CC3)n2CCCO)n(C)c1=O
  5, 1, -7, 5090, 3.4, 7, -5
#18 Cc1ccc(C(=O)NCC(=O)N2CCCCCCC2)cc1C
  0, 8, x, u, -1.9, 6, 11
#19 COC(=O)C1=C(c2cccc(OC)c2OC)CC2CCC1N2C(=O)N1CCCC1 (centres undefined)
  3, x, x, x, 8.9, 19, 8
#20 NNc1nc2c(Cl)ccc(Cl)c2s1
  x, -26, 2, 10605, x, x, x
#21 COC(=O)Cn1cc(/C=C2\C(=O)NC(=O)N(c3ccccc3)C2=O)c2ccccc21
  x, -9, -3, 4140, x, x, x
#22 O=C(NCCN1CCN(Cc2ccc([N+](=O)[O-])cc2)CC1)C(=O)Nc1ccccc1
  -3, -17, 1, 9747, -3.6, -6, 1
#23 CC1(C)Cc2c(sc(N=CN3CCCC3)c2C#N)C(C)(C)N1
  -3, x, x, x, -1.1, -7, -1
#24 Cc1c(C(=O)OC(C)C)[nH]c2c1C(=O)CC(C)(C)C2
  -2, -5, -3, 12717, 0.8, -15, -9
#25 COc1ccc(CCNC(=O)CSc2nnc(-c3ccccc3)c3ccccc23)cc1OC
  -3, -10, -7, 2467, -0.4, 2, 0
#26 C=CCSC1=N/C(=C\c2cccnc2)C(=O)N1c1ccc(OC)cc1
  -12, -11, 2, 2813, -2.4, 9, 2
#27 CSc1nc2c(c(=O)[nH]1)CCCC2
  7, -18, -3, 4081, 1.0, x, x
#28 N#Cc1c(C(F)(F)F)cc(=O)[nH]c1SCC(=O)O
  13, -26, 1, 4705, 1.7, 1, 7
#29 O=C(Nc1cccnc1)c1ccc([N+](=O)[O-])s1
  15, 0, x, u, 21, 15, 12
#30 CCn1ccc(C(=O)NC2C(=O)N3C(C(=O)O)=C(C)CSC23)n1 (centres undefined)
  7, 13, 5, 4574, 8.7, x, x
#31 CC(C(=O)O)N(C(=O)c1ccccc1)c1ccc(F)c(Cl)c1 (centres undefined)
  -6, -20, -8, 3499, -0.2, -9, 8
#32 COc1ccc(C(=O)ON=C2C(=O)N(C)c3ccccc32)cc1
  2, x, x, x, 1.7, 7, 13
#33 Nc1ccc2nc(-c3ccccc3)cnc2c1
  -1, -73, -9, 4236, 1.5, 13, 1
#34 COc1cc([N+](=O)[O-])ccc1NC(=S)NNC(=O)c1ccc2c(c1)OCO2
  2, -4, 7, 6554, 13, 2, 5
#35 O=C(CSc1nnc(NC(=O)c2c(F)cccc2F)s1)NCc1ccccc1
  16, -12, 6, 2976, -3.0, -4, -1
#36 CCOc1cc(/C=N/NC(=O)c2cc(C3CC3)[nH]n2)ccc1O
  x, -9, -4, 2749, x, x, x
#37 COC(=O)C(NC(C)=O)(Nc1nc(C)cs1)C(F)(F)F (centres undefined)
  3, -20, -7, 4564, 0.8, x, x
#38 COc1ccccc1/C=C/C(=O)Nc1ccc(S(=O)(=O)Nc2cc(C)nc(C)n2)cc1
  8, -4, 7, 4563, -0.2, 10, 10
#39 CC(NC(=O)CCc1nnc(Cc2cccc(C(F)(F)F)c2)o1)C1CC1 (centres undefined)
  1, -33, -20, 3963, 3.1, 16, -4
#40 Cc1ccccc1OCC(O)CN1CCN(CC(O)COc2ccccc2C)CC1 (centres undefined)
  -1, -19, 7, 4506, 4.4, 11, 5

From compound 17 as far as 31, copied from above:
Value order – ugtP null kill, PrP 5UTR inh, BJeLR lethal, Bead autofluor, Sa RN4220 lethal, Mtb hypoxia inh, Mtb hypoxia inh growth
#17 Cn1c(=O)c2c(nc(CN3CCN(C(=O)c4ccco4)CC3)n2CCCO)n(C)c1=O
  5, 1, -7, 5090, 3.4, 7, -5
#18 Cc1ccc(C(=O)NCC(=O)N2CCCCCCC2)cc1C
  0, 8, x, u, -1.9, 6, 11
#19 COC(=O)C1=C(c2cccc(OC)c2OC)CC2CCC1N2C(=O)N1CCCC1 (centres undefined)
  3, x, x, x, 8.9, 19, 8
#20 NNc1nc2c(Cl)ccc(Cl)c2s1
  x, -26, 2, 10605, x, x, x
#21 COC(=O)Cn1cc(/C=C2\C(=O)NC(=O)N(c3ccccc3)C2=O)c2ccccc21
  x, -9, -3, 4140, x, x, x
#22 O=C(NCCN1CCN(Cc2ccc([N+](=O)[O-])cc2)CC1)C(=O)Nc1ccccc1
  -3, -17, 1, 9747, -3.6, -6, 1
#23 CC1(C)Cc2c(sc(N=CN3CCCC3)c2C#N)C(C)(C)N1
  -3, x, x, x, -1.1, -7, -1
#24 Cc1c(C(=O)OC(C)C)[nH]c2c1C(=O)CC(C)(C)C2
  -2, -5, -3, 12717, 0.8, -15, -9
#25 COc1ccc(CCNC(=O)CSc2nnc(-c3ccccc3)c3ccccc23)cc1OC
  -3, -10, -7, 2467, -0.4, 2, 0
#26 C=CCSC1=N/C(=C\c2cccnc2)C(=O)N1c1ccc(OC)cc1
  -12, -11, 2, 2813, -2.4, 9, 2
#27 CSc1nc2c(c(=O)[nH]1)CCCC2
  7, -18, -3, 4081, 1.0, x, x
#28 N#Cc1c(C(F)(F)F)cc(=O)[nH]c1SCC(=O)O
  13, -26, 1, 4705, 1.7, 1, 7
#29 O=C(Nc1cccnc1)c1ccc([N+](=O)[O-])s1
  15, 0, x, u, 21, 15, 12
#30 CCn1ccc(C(=O)NC2C(=O)N3C(C(=O)O)=C(C)CSC23)n1 (centres undefined)
  7, 13, 5, 4574, 8.7, x, x
#31 CC(C(=O)O)N(C(=O)c1ccccc1)c1ccc(F)c(Cl)c1 (centres undefined)
  -6, -20, -8, 3499, -0.2, -9, 8

(continued)
Value order – ugtP null kill, PrP 5UTR inh, BJeLR lethal, Bead autofluor, Sa RN4220 lethal, Mtb hypoxia inh, Mtb hypoxia inh growth
#41 CC(=O)Oc1ccc(/C=C2/Oc3ccccc3C2=O)cc1
  3, -33, -4, 6194, 7.1, -5, 5
#42 N=C1C(c2nc3ccccc3s2)=C(O)CN1NC(=O)c1ccco1
  2, x, -7, 3528, 3.3, -2, 1
#43 CS(=O)(=O)NCc1nnc(SCc2ccc(C(F)(F)F)cc2)o1
  -9, -18, 9, 5239, -1.8, -10, 7
#44 CCN1C(=O)C2(C(C#N)=C(N)Oc3c2c(C)nn3-c2ccccc2)c2ccccc21 (centres undefined)
  76, -18, -13, 8493, 81, 9, 14
#45 Cc1oc(-c2cccc(Cl)c2)nc1CN1CCC(C(=O)NC2CC2)CC1
  2, -4, -7, 5888, -2.2, 8, 4
#46 COc1ccc2oc(C(=O)OCC(=O)N(C)C3CCCCC3)c(C)c2c1
  x, -10, -5, u, x, x, x
#47 Cc1ccc(C)c(S(=O)(=O)N2CCN(CC(=O)Nc3sccc3C#N)CC2)c1
  -4, 2, 0, 2462, 3.3, -10, -3
#48 CC1CCN(C(=O)c2ccccc2NC(=O)c2cccc(S(=O)(=O)N3CCOCC3)c2)CC1
  0, -21, x, 3080, 12, -8, -1
#49 COc1cc(CN2CCN(c3ccc(C)cc3)CC2)cc([N+](=O)[O-])c1O
  -1, x, 23, x, 4.2, 8, 11
#50 C[C@H]1C=C(C(=O)NCc2ccccc2)O[C@@H](OCc2ccc(CO)cc2)C1
  x, -14, 0, 3186, x, x, x
#51 Cc1cc(Nc2ccccc2)n(-c2nc3ccccc3[nH]2)n1
  72, 5, -7, 2360, 17, 11, 11
#52 C/C=C\C=C/C(=O)Nc1cccc(C2=NOC3(C2)C[C@@H](C(N)=O)N(C(=O)/C=C/CC)C3)c1 (some centres undefined)
  x, -10, 2, 4343, x, x, x
#53 COc1ccc(CNc2nc3ccccc3n2Cc2ccccc2)cc1OC
  2, -6, 3, 4067, -1.4, x, x
#54 Cc1ccc(C(=O)OC2CCOC2=O)cc1NC(=O)c1ccco1 (centres undefined)
  12, -11, 1, 2536, 4.0, 14, 8
#55 Cc1ccc(C(C)C)c(OCCCCN2CCNCC2)c1
  9, -8, -4, 3269, 1.1, 15, 14
#56 COc1cc2sc(-c3ccc(S(C)(=O)=O)cc3)c(-c3ccc4c(c3)OCO4)c2cc1OC
  0, -16, x, 2941, -3.6, -10, -1
#57 C=CCn1c(SCC(=O)Nc2ncc(Cc3ccc(C)c(Cl)c3)s2)nnc1-c1ccncc1
  -5, -4, -5, 7017, 2.7, 5, 4
#58 CCN(CC)CCNC(=O)C1CCC(=O)N1CCc1ccccc1 (centres undefined)
  16, -20, 6, 3771, 19, 4, 3
#59 CCOC(=O)/C=C1\SCC(=O)N1CC(=O)Nc1ccc2c(c1)CCC2
  4, -1, 1, 9586, 6.1, 6, -4
#60 CCc1cccc(NC(=O)c2ccc(Cn3c(=O)[nH]c4ccsc4c3=O)cc2)c1
  -11, 4, -2, 4798, -15, -3, 5
#61 COc1ccc(CC2(CCc3ccccn3)C(=O)NC(=O)N(c3ccccc3C)C2=O)cc1OC (centres undefined)
  -2, -8, -11, 4564, 8.1, 9, 5
#62 O=c1[nH]c(/C=C/c2ccccc2F)nc2ccccc12
  0, -84, 38, 4096, 1.1, 10, 2
